Screens as filed in PubChem.
rRNA inh HTS: inhibitors of bacterial rRNA selective over humanized ribosomes | E. coli WT GFP vs humanized-ribosome RFP mutants, fluorescence, 24 h; active compounds read low; DMSO median 0, no signal -100 | GFP signal change (wild-type ribosome), % (no concentration beside the values) | 1.6% of 350,000 active | AID 720706;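 active means significant combined selectivity score with lowered wild-type GFP, culture density cut under 30%, mutant RFP and density less affected; inactive means any of these conditions unmet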; further: one replicate is shown; some compounds called inactive have numbers as strong as hits
MLL AF4-AF9 inh: MLL-AF4/AF9 protein interaction inhibition; inhibition, % at 10 µM; AlphaScreen, biotin-AF4 peptide binding to FLAG-AF9; 0.47% of 350,000 active; P42568; AID 651704;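 active means every replicate reaching a set inhibition limit, whatever the replicate mean, cut at about 25% in these data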;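 further: 0% = plate neutral control median and 100% = total signal loss; the record names both 10 and 1 µM as test concentration; the first replicate is given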
Target sequence (P42568 whole entry, looked up): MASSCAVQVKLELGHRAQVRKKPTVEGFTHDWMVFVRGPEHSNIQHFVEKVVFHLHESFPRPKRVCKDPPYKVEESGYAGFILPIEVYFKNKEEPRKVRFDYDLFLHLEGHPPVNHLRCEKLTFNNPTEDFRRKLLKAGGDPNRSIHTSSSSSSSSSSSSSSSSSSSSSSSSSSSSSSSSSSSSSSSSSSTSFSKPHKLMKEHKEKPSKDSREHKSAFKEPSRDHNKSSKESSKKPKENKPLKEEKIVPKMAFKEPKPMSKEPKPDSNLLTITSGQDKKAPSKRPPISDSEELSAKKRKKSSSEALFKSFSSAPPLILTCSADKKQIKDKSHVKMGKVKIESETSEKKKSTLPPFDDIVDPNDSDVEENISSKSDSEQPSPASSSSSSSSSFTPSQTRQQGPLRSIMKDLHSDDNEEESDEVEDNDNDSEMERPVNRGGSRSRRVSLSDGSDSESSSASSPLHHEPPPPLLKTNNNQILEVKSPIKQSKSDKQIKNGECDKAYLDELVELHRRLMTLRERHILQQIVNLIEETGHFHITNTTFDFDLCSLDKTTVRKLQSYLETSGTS
FGF22 binding: shifts melting point of recombinant human FGF22 | Q9HCT0 | recombinant FGF22 thermal shift, SYPRO orange fluorescence; percent of sucrose octasulfate shift, DMSO zero | calls only at 9.99 µM | 1.5% of 340,000 active;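 active means melting point raised past a set limit in the mean and every replicate; three in four hits are not shown here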
Target sequence (Q9HCT0 whole entry, looked up): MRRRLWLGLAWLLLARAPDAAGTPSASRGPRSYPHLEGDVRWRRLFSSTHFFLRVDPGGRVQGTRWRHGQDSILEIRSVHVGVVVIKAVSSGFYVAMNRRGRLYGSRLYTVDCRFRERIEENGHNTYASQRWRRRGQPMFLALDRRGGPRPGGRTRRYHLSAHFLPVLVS
rRNA inh HTS OD600: recorded beside rRNA inh HTS, whose call it bears; OD600 change, %; measured here: OD600 growth;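 optical density of the mix in the first replicate; 0 = DMSO median and -100 = no signal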
rRNA inh HTS RFP: recorded beside rRNA inh HTS, whose call it bears; RFP signal change, %; measured here: RFP humanized mutant strains;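 first replicate; 0 = DMSO median and -100 = no signal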
* marks the source's active call; other numbers are inactive results; i = inactive; + = active, no number; & = joins results of further samples.

SMILES	rRNA inh HTS	rRNA inh HTS OD600	rRNA inh HTS RFP	MLL AF4-AF9 inh	FGF22 binding
C[C@H](CO)N1C[C@H](C)[C@H](CN(C)Cc2ccccc2)OCCCC[C@H](C)Oc2ccc(NC(=O)Nc3ccc(F)cc3)cc2C1=O	-15.6	-57.2	36.8	4.0	i
CCC(=O)N1C[C@@H](C)[C@@H](OC)CN(C)C(=O)c2cc(NC(=O)C3CCOCC3)ccc2OC[C@H]1C	1.4	3.8	1.1	0.0	i
O=C(NCC[C@@H]1CC[C@@H](NC(=O)C2CC2)[C@@H](CO)O1)Nc1ccc(C(F)(F)F)cc1	-3.8&-59.9	5.1&-81.8	-1.7&-19.1	4.7	i
O=C(Nc1nccs1)[C@H]1[C@H](CO)[C@H]2Cn3c(cccc3=O)[C@@H]1N2C(=O)C1CC1	-1.5	0.7	-1.8	-1.9	i
CO[C@@H]1CN(C)C(=O)c2cc(NC(=O)Nc3ccc(C(F)(F)F)cc3)ccc2OC[C@H](C)NC[C@H]1C	-59.1	-83.2	-14.2	8.9	i
OC[C@@H]1[C@@H](c2ccc(-c3ccccc3)cc2)[C@H]2CN(CCC(F)(F)F)CCCCN12	4.9	13.9	1.6	9.1	i
CCCCC[C@H](C)N1C[C@@H](COCc2ccccc2)Oc2cc(N3CC[C@@H](O)C3)ccc2S1(=O)=O	10.5	6.1	3.0	1.2	i
OC(c1ccc(F)c(F)c1)c1nc(-c2cccc(C(F)(F)F)c2)cs1 (centres undefined)	-3.1	-2.4	5.8	7.3	i
C[C@@H]1CN([C@@H](C)CO)C(=O)c2ccccc2-c2ccccc2CO[C@@H]1CN(C)C(=O)NC1CCCCC1	3.0	0.5	1.3	-3.3	i
C[C@@H]1CN([C@H](C)CO)C(=O)c2cc(/C=C/c3ccccc3)cnc2O[C@H]1CN(C)Cc1cncnc1	-3.6	-5.3	0.5	3.1	i
C[C@@H]1CN([C@H](C)CO)C(=O)c2cc(NC(=O)Nc3ccc(F)cc3)ccc2O[C@@H]1CN(C)C	2.6	-2.5	0.1	-1.3	i
O=C(C[C@H]1CC[C@@H](NC(=O)c2ccc3c(c2)OCO3)[C@@H](CO)O1)NCc1ccc(Cl)cc1	-1.0	-9.7	0.4	0.1	i
C[C@H]1CN([C@@H](C)CO)S(=O)(=O)c2ccc(-c3cncnc3)cc2O[C@H]1CN(C)Cc1ccncc1	0.3	1.1	0.4	2.5	i
C[C@H]1CN([C@@H](C)CO)C(=O)c2cc(NC(=O)CCC(F)(F)F)ccc2O[C@@H]1CN(C)S(=O)(=O)c1ccc(Cl)cc1	-2.2	-1.0	-1.1	-2.7	i
CC=Cc1ccc2n(c1=O)C[C@@H]1[C@@H](CO)[C@H](C(=O)N3CCc4ccccc4C3)N(C(=O)C3CCC3)[C@H]21 (mixture of isomers)	-1.1	-6.6	0.1	0.5	i
COCC#Cc1ccc2c(c1)O[C@@H](CN(C)CC1CCOCC1)[C@H](C)CN([C@H](C)CO)S2(=O)=O	-2.4	-9.4	-0.6	-4.2	i
O=C(c1cccc(F)c1)N1CC[C@@H]2[C@H]1c1cc(C#Cc3ccc(F)cc3)ccc1N[C@@H]2CO	-8.6	-0.7	13.9	1.5	i
O=C(C[C@@H]1CC[C@H]2[C@@H](COC[C@@H](O)CN2CCc2ccccc2)O1)NCc1ccc(Oc2ccccc2)cc1	-24.5	-53.0	8.2	1.9	i
NC(=O)c1ccc(-c2ccc(N3C(c4ccsc4)=Cc4ccc(F)cc4C3CC(=O)c3ccco3)cc2)cc1 (centres undefined)	3.6	-10.3	5.2	0.9	i
COc1cccc(NC(=O)C[C@H]2CC[C@H]3[C@@H](COc4ccc(NC(=O)C5CC5)cc4C(=O)N3C)O2)c1	-3.1	3.6	0.2	-1.2	i

4 entries picked at random from the list so far, as already listed:
SMILES	rRNA inh HTS	rRNA inh HTS OD600	rRNA inh HTS RFP	MLL AF4-AF9 inh	FGF22 binding
O=C(Nc1nccs1)[C@H]1[C@H](CO)[C@H]2Cn3c(cccc3=O)[C@@H]1N2C(=O)C1CC1	-1.5	0.7	-1.8	-1.9	i
CO[C@@H]1CN(C)C(=O)c2cc(NC(=O)Nc3ccc(C(F)(F)F)cc3)ccc2OC[C@H](C)NC[C@H]1C	-59.1	-83.2	-14.2	8.9	i
CC=Cc1ccc2n(c1=O)C[C@@H]1[C@@H](CO)[C@H](C(=O)N3CCc4ccccc4C3)N(C(=O)C3CCC3)[C@H]21 (mixture of isomers)	-1.1	-6.6	0.1	0.5	i
C[C@H]1CN([C@@H](C)CO)S(=O)(=O)c2ccc(-c3cncnc3)cc2O[C@H]1CN(C)Cc1ccncc1	0.3	1.1	0.4	2.5	i

Next part:
SMILES	rRNA inh HTS	rRNA inh HTS OD600	rRNA inh HTS RFP	MLL AF4-AF9 inh	FGF22 binding
NCC[C@H]1CC[C@@H](NC(=O)C2CCCC2)[C@@H](CO)O1	2.2	6.1	-0.9	-1.5	i
C[C@H]1CN([C@@H](C)CO)C(=O)c2cccc(NS(C)(=O)=O)c2O[C@H]1CN(C)C(=O)Nc1cccc2ccccc12	5.3	2.7	0.9	-2.9	i
COc1ccc(NC(=O)Nc2ccc3c(c2)CC(=O)N([C@H](C)CO)C[C@H](C)[C@H](CN(C)S(=O)(=O)c2cccs2)O3)cc1	-0.4	-1.7	2.2	0.8	i
Cc1noc(C)c1S(=O)(=O)Nc1ccc2c(c1)C(=O)N([C@H](C)CO)C[C@H](C)[C@H](CN(C)S(=O)(=O)c1cn(C)cn1)OCCCC[C@H](C)O2	-0.3	5.7	-0.7	-1.3	i
Cc1cccc(COC[C@H](Cc2ccccc2)N2CCN(C(=O)c3cccc(Cl)c3)CCC2=O)c1	-28.0	-36.9	-5.5	0.5	i
CC1(C(=O)NS(C)(=O)=O)CCN1C(=O)CC(c1ccccc1)c1ccccc1 (centres undefined)	11.8	11.4	2.3	-2.2	i
CC(C)Oc1ccc(F)cc1-c1cc(C(=O)NCc2cccs2)[nH]n1	-32.8	-57.1	1.1	-0.3	+
Cc1ccccc1-c1ccc([C@@H]2[C@@H](CO)N3C(=O)CN(C(=O)Cc4ccccn4)C[C@@H]23)cc1	2.5	-3.2	1.8	-7.3	i
CC(C)(C)OC(=O)N1CCc2onc(-c3ccccc3[N+](=O)[O-])c2C1=O	0.4	3.1	-0.1	1.8	i
CN(C)CC(=O)N1[C@@H]2c3ccc(C4=CCCC4)c(=O)n3C[C@H]1[C@H](CO)[C@H]2C(=O)NCC1CCCCC1	-4.0	-3.8	-0.7	-3.0	i
CO[C@H]1CN(C)C(=O)c2cc(NC(=O)C3CC3)ccc2OC[C@@H](C)N(CCC(F)(F)F)C[C@@H]1C	-2.8	-3.6	1.7	-3.3	i
C[C@@H]1CN([C@H](C)CO)C(=O)c2cc(C#CC3(O)CCCC3)cnc2O[C@@H]1CN(C)C(=O)CC1CC1	3.3	5.0	-3.4	-2.5	i
COC(=O)[C@@H](NCc1ccc(OC)c(B(O)O)c1)C(C)C	27.9	15.4	0.9	-1.3	i
CCCN1C[C@@H](C)[C@@H](OC)CN(C)C(=O)c2cc(NS(=O)(=O)CC)ccc2OC[C@H]1C	-0.3	2.8	-1.8	0.5	i
O=C(C[C@H]1C=C[C@H](NS(=O)(=O)c2ccccc2)[C@@H](CO)O1)NCCN1CCCCC1	4.7	9.8	0.0	0.3	i
C[C@@H]1CCCCO[C@H](CN(C)C(=O)Nc2ccc(C(F)(F)F)cc2)[C@H](C)CN([C@@H](C)CO)C(=O)c2cc(NC(=O)c3ccccc3)ccc2O1	-0.6	-0.3	-1.1	-11.3	i
Cc1ccc(S(=O)(=O)N(C)C[C@@H]2Oc3ccc(NC(=O)Cc4ccccc4)cc3CC(=O)N([C@@H](C)CO)C[C@H]2C)cc1	-6.1	-3.7	2.2	-11.5	i
CO[C@H]1CN(C)C(=O)c2cc(NC(C)=O)ccc2OC[C@@H](C)N(C(=O)c2cnccn2)C[C@H]1C	2.8	-3.2	-0.8	3.8	i
C[C@@H]1CN([C@H](C)CO)C(=O)c2cc(NC(=O)Nc3ccccc3)ccc2O[C@@H](C)CCCCO[C@@H]1CN(C)CC1CCCCC1	-0.3	2.4	-1.3	-14.2	i
COCC(=O)Nc1ccc2c(c1)[C@H]1C[C@H](CC(=O)NC3CCCCC3)O[C@H](CO)[C@H]1O2	1.0	8.5	-1.1	-0.4	i
CCCN(C)C[C@@H]1OCCCC[C@H](C)Oc2ccc(NC(=O)c3ccccc3)cc2C(=O)N([C@H](C)CO)C[C@@H]1C	-0.8	-6.9	1.6	2.7	i
COc1ccc(-c2csc(C(O)c3ccccc3)n2)cc1 (centres undefined)	-6.0	-8.7	-3.6	-5.0	i
CCC(=O)N1CC[C@@H]2[C@H]1c1cc(-c3ccccc3)ccc1N(C)[C@H]2CO	-3.1	-11.2	-8.0	2.1	i
COc1ccc(CC(=O)N2CCN(C(=O)Cc3ccc(OC)c(OC)c3)CC2)cc1OC	3.3	3.8	-3.7	-2.3	i
COc1ccc(NC(=O)N(C)C[C@@H]2Oc3ncc(C4=CCCC4)cc3C(=O)N([C@@H](C)CO)C[C@H]2C)cc1	1.8	10.5	0.7	-1.9	i
COc1ccc(S(=O)(=O)Nc2ccc3c(c2)C(=O)N([C@H](C)CO)C[C@@H](C)[C@@H](CN(C)C(=O)Nc2c(C)noc2C)OCCCC[C@@H](C)O3)cc1	0.7	2.8	4.3	-1.7	i
C=CCCC1CN(Cc2ccc(OC)cc2)S(=O)(=O)c2c(Oc3ccc(OC)cc3)cccc2O1 (centres undefined)	10.9	-1.5	1.2	-0.7	i
C[C@@H]1CCCCO[C@H](CN(C)S(=O)(=O)c2cn(C)cn2)[C@H](C)CN([C@@H](C)CO)C(=O)c2cc(NC(=O)Nc3ccccc3)ccc2O1	-2.6	-1.9	-0.6	-2.4	i
OC(c1ccccc1)(c1ccccc1)C1CCN(CCCOc2cccnc2)CC1	10.6	13.5	2.0	-4.2	i
Cc1ccc(-c2ccc3c(c2)O[C@@H](CN(C)Cc2ccc(C(=O)O)cc2)[C@H](C)CN([C@@H](C)CO)S3(=O)=O)cc1	-2.6	-14.7	-2.0	1.5	i
COCC(=O)Nc1ccc2c(c1)C(=O)N(C)C[C@H](OC)[C@@H](C)CN(C(=O)c1ccccn1)[C@@H](C)CO2	-0.9	5.4	-1.8	-1.4	i
CCc1ccccc1NC(=O)C1CCN(S(=O)(=O)c2ccc(N3CCCC3=O)cc2)CC1	3.1	1.9	-0.6	-2.6	i
COc1ccc(NC(=O)N(C)C[C@@H]2Oc3c(NS(=O)(=O)c4ccc(C)cc4)cccc3C(=O)N([C@H](C)CO)C[C@H]2C)cc1	-1.1	1.8	1.3	-0.1	i
C[C@@H]1CCCCO[C@H](CN(C)C(=O)CCCN(C)C)[C@H](C)CN([C@@H](C)CO)C(=O)c2cc(NS(=O)(=O)c3ccccc3)ccc2O1	0.6	4.5	-1.0	1.2	i
C[C@@H]1CN([C@H](C)CO)C(=O)c2cc(-c3ccc(C(=O)N(C)C)cc3)cnc2O[C@H]1CN(C)C(=O)CN(C)C	5.2	2.3	-2.7	-11.7	i
C[C@H]1CN([C@@H](C)CO)C(=O)c2cc(C#CC3CC3)cnc2O[C@H]1CN(C)Cc1ccccc1C(=O)O	-0.5	3.3	-0.3	0.3	i
COc1cccc(S(=O)(=O)N[C@@H]2CC[C@@H](CCn3cc(-c4ccc(F)cc4)nn3)O[C@H]2CO)c1	-1.3	-2.4	-1.1	1.8	i
C[C@@H]1CN([C@@H](C)CO)C(=O)c2cccc(NS(=O)(=O)c3ccccc3)c2O[C@H]1CN(C)Cc1ccccc1	1.4	2.7	-2.4	0.2	i
C[C@@H]1CN([C@H](C)CO)C(=O)Cc2cc(NC(=O)Nc3cccc4ccccc34)ccc2O[C@@H]1CN(C)C(=O)Nc1ccc(C(F)(F)F)cc1	1.3	5.0	0.5	-0.1	i
O=C(C[C@@H]1CC[C@@H]2[C@H](COC[C@H](O)CN2Cc2ccccc2)O1)N1CCOCC1	-2.1	-13.2	-3.7	-3.3	i
CSc1ccc(CNC(=O)C2(C)CCCN(C(C)C)C2)cc1 (centres undefined)	20.3	27.2	0.5	-1.8	i
COCC(=O)Nc1ccc2c(c1)[C@@H]1C[C@@H](CC(=O)NCc3ccncc3)O[C@H](CO)[C@@H]1O2	2.6	3.3	-1.7	-2.0	i
COc1ccc(NC(=O)Nc2cccc3c2O[C@@H](CN(C)Cc2ccccc2)[C@H](C)CN([C@@H](C)CO)C3=O)cc1	-5.2	-4.2	1.6	0.9	i
CN1C(=O)c2cc(NC(=O)c3ccc(F)cc3)ccc2OC[C@H]2O[C@@H](CC(=O)O)CC[C@@H]21	2.6	4.8	-1.2	-2.1	i
CCc1nc2ccc(C(=O)NCCCn3ccnc3)cn2c1N(C)Cc1nccs1	5.2	4.3	-2.2	-0.1	i
COc1ccc(C(N)c2csc(Nc3ccc(S(C)(=O)=O)cc3)n2)cc1 (centres undefined)	6.8	15.4	-1.9	6.3	i
CCc1ncc(CO)n1Cc1cccc2ccccc12	5.2	12.1	6.2	-1.1	i
C[C@@H]1CCCCO[C@@H](CN(C)C)[C@@H](C)CN([C@H](C)CO)C(=O)c2cc(NS(=O)(=O)c3cn(C)cn3)ccc2O1	2.6	1.6	-3.5	-5.1	i

An excerpt, so the mix of outcomes need not match the whole.
